PINK1 expr mod – changes PINK1 expression; PINK1 immunofluorescence, high-content cytometry, 24 h; Potency, µM (top dose mostly 76.6 µM), for the others: top-dose activation (PINK1 increase), usual class: activators; hit rate 0.2% among 410,000; AID 624263; active = well fitted activation curve with a large enough effect; inconclusive = small, poorly fitted or top-dose-only effect; inactive = flat fitted curve, though single readings scatter; cell line not stated here;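 note: potency is the fitted concentration of half-maximal effect; % of control where 0% means no effect; nearly all actives have a fitted effect of over 65% in size; a mitochondrial uncoupler was the plate control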
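Cells are seeded, rested 12 hours, then given compound at five concentrations or DMSO for 24 hours. After fixation, blocking and antibody staining, PINK1 amount and mitochondrial localization are scored; CCCP serves as control.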
Six1-Eya2 inh – Six1/Eya2 interaction inhibition; Q15475+O00167; AlphaScreen GST-Six1/His-Eya2 binding, biochemical; active compounds read low; control for the full effect not named in the record; activity change, % (test concentration not listed); hit rate 0.56% among 360,000; AID 651725; in the data active = activity change below about -65%; inconclusive = about -30% to -65%; inactive = above about -30%; note: % is set by controls: 0 for no effect and ±100 for the full control effect
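AlphaScreen luminescence read after one hour at 37 °C in darkness. Pin-transferred compounds met GST-Six1 and His-Eya2 protein (5X stock 250 nM/500 nM) plus glutathione donor and Ni-chelate acceptor beads (5X, 50 ug/mL).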
TRPML1 ag – human mucolipin-1 channel agonism; Q9GZU1; TRPML1-expressing cells, Ca2+ dye fluorescence, FDSS; host cell line not named in the record; reference of the full effect not given here; activation, % (test concentration not listed); hit rate 0.12% among 410,000; in the data active = activation above about 50%; inconclusive = about 30% to 50%; inactive = below about 30%; note: 0% is about no effect; the text of the record puts the active cut at 80%
Target sequence (Q9GZU1 whole entry, looked up): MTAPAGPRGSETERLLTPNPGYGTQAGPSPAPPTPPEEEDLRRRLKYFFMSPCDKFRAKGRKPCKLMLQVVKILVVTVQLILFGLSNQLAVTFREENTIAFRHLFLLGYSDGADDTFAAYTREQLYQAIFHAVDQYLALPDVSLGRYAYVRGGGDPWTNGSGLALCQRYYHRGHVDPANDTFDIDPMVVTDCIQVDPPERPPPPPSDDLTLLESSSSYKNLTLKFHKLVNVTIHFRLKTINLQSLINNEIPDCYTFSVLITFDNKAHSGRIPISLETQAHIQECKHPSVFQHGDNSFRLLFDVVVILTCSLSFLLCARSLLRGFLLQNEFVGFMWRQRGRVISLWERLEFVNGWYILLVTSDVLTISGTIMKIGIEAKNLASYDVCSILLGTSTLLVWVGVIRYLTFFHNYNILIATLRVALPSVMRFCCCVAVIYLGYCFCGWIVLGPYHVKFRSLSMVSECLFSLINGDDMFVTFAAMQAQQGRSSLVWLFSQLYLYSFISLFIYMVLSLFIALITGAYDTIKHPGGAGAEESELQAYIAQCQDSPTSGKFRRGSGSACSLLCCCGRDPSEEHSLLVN
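Calcium fluorescence on an FDSS kinetic reader gave the read-out. Tet-induced TRPML1-DL cells were plated overnight, dye-loaded (Ca8 with quencher, 45-90 min, room temperature, dark), then read 110 s after compound addition, and again 110 s after 4uM final 54-4 (EC80).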
TRPML1 blocker – inhibitors of human TRPML1 channel; Q9GZU1; TRPML1-inducible cells, Ca2+ dye fluorescence, FDSS; active compounds read low; inhibition of EC80 agonist-evoked calcium signal; activity change, negative = inhibition, % (test concentration not listed); hit rate 0.02% among 390,000; AID 624415; in the data active means activity change below about -50%; inconclusive means about -30% to -50%; inactive means above about -30%;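 note: stimulus is agonist 54-4 at its EC80 concentration; % is set by controls: 0 for no effect and ±100 for the full control effect; compound concentration not given in the record; the text of the record puts the active cut at -80%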
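TRPML1-DL cells, Tet-induced overnight (~16 h, 37 °C) at 1,500 cells/well, were loaded with Ca8 no-wash dye plus quencher for 45-90 min at room temperature. Compounds were pinned during FDSS kinetic reading; agonist 54-4 at EC80 (4 uM final) then added.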
D2 potentiator – human D2 receptor positive allosteric modulation; P14416; hit rate 0.23% among 360,000; DiscoveRx D2 beta-arrestin cells, luminescence, 90 min; 100% = 57 uM dopamine signal; potentiation, % (concentration not given with the values); AID 624464; active = potentiation of 50% or more; inconclusive = 30% to 50%; inactive = 30% or less;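 note: compound concentration not given in the record; tested on top of an EC20 dose of dopamine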
Target sequence (P14416 whole entry, looked up): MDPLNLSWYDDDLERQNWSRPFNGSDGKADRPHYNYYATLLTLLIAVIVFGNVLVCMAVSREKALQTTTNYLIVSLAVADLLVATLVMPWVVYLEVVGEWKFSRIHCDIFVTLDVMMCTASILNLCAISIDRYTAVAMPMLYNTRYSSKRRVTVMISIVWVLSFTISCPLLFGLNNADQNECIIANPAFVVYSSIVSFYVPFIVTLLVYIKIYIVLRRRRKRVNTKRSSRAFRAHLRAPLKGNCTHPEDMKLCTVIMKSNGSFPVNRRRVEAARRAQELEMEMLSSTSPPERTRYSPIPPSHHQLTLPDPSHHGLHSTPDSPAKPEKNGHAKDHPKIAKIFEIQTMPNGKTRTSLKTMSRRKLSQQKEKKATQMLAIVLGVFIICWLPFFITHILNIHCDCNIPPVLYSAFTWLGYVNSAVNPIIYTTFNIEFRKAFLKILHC
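PathHunter beta-arrestin assay in DiscoveRx D2 cells. Compounds were added with an EC20 of dopamine (50 nM final) for 90 min at 37 deg C. Luminescence was read 1 h after detection reagent, with 57 uM dopamine as the EC100 control.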
D2 ag – agonists of human D2 dopamine receptor (beta-arrestin); activation, % (no concentration beside the values); DiscoveRx PathHunter D2 beta-arrestin, luminescence, 90 min; 100% = 57 uM dopamine signal; hit rate 0.084% among 360,000; in the data active = activation above about 40%; inconclusive = about 15% to 40%; inactive = below about 15%; note: compound concentration not given in the record; the text of the record calls up to 30% inactive
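Agonist mode: compounds alone added to overnight-plated D2 PathHunter cells for 90 min at 37 C, with 57 uM final dopamine (EC100) defining full response. Beta-arrestin recruitment detected by chemiluminescent reagent, read after 1 h at ambient temperature.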
Active calls of the source: *; ? = inconclusive; nt = not tested or not shown; [ ] = remark or other dose.

SMILES	PINK1 expr mod	Six1-Eya2 inh	TRPML1 ag	TRPML1 blocker	D2 potentiator	D2 ag
CC(C)N(C(=O)[C@H]1CC(CC(=O)NCCc2ccccn2)C(=O)N2CCc3c([nH]c4ccccc34)[C@]12C)C(C)C (stereo partly specified)	0.9%	-2	-0.4	-7	nt	-1.9
O=C(Nc1ccccc1C(F)(F)F)c1ncoc1-c1ccco1	1.5%	nt	1.9	28	nt	nt
O=C(N/C(=C/c1ccc(F)cc1)C(=O)N1CCOCC1)c1ccccc1	-0.7%	11	0.1	-5	-7	-8.1
O=C(Nc1ccccc1)Nc1ccc2ccccc2n1	6.2%	-2	-0.5	0	-12	-4.5
CN(Cc1cn(C)nc1-c1ccccc1F)C1CCOC1 (stereo unspecified)	-0.5%	-5	-0.1	-2	-3	-2.0
COCCNC(=O)c1cc2c3ccccc3n(C)c2s1	2.9%[38.3 µM]	0	-0.8	-2	-2	-0.2
CCCC(=O)c1c(NC(C)C)cc(C)oc1=O	-1.8%[38.3 µM]	-2	3.9	-4	-1	-1.2
COc1ccccc1NC(=S)N(Cc1cccnc1)Cc1ccco1	0.3%	-4	2.7	11	0	-1.9
O=C(Nc1ccccc1)c1cc(C2CCCN(C(=O)c3ccccc3)C2)on1 (stereo unspecified)	-0.5%	1	-0.7	nt	-1	-0.1
CCNC(=O)NC(=O)C(C)OC(=O)CCS(=O)(=O)c1ccc(C)cc1 (stereo unspecified)	-1.8%	-5	0.9	13	-3	-2.3
CCOc1ccccc1NC(=O)CCc1nc(-c2cccc(C)c2)no1	1.5%	nt	0.8	7	nt	nt
CSc1cccc(NC(=S)N(Cc2ccc(C)cc2)Cc2ccccn2)c1	4.0%	9	1.3	-18	3	-1.5

Overlap with the part before: 6 entries, followed by the next part.
SMILES	PINK1 expr mod	Six1-Eya2 inh	TRPML1 ag	TRPML1 blocker	D2 potentiator	D2 ag
CCCC(=O)c1c(NC(C)C)cc(C)oc1=O	-1.8%[38.3 µM]	-2	3.9	-4	-1	-1.2
COc1ccccc1NC(=S)N(Cc1cccnc1)Cc1ccco1	0.3%	-4	2.7	11	0	-1.9
O=C(Nc1ccccc1)c1cc(C2CCCN(C(=O)c3ccccc3)C2)on1 (stereo unspecified)	-0.5%	1	-0.7	nt	-1	-0.1
CCNC(=O)NC(=O)C(C)OC(=O)CCS(=O)(=O)c1ccc(C)cc1 (stereo unspecified)	-1.8%	-5	0.9	13	-3	-2.3
CCOc1ccccc1NC(=O)CCc1nc(-c2cccc(C)c2)no1	1.5%	nt	0.8	7	nt	nt
CSc1cccc(NC(=S)N(Cc2ccc(C)cc2)Cc2ccccn2)c1	4.0%	9	1.3	-18	3	-1.5
COc1ccc(-c2nnc3sc(CN4C(=O)c5ccccc5C4=O)nn23)cc1	7.1%	1	0.3	12	2	-0.3
Cc1cccc(C(=O)OCC(=O)NC(C)CCc2ccccc2)c1O (stereo unspecified)	10%	4	1.5	-15	0	-2.8
Cc1ccccc1C(=O)Nc1nc(=S)ss1	11%	4	0.7	12	-7	0.5
Cc1cc(C)c(CN2CCN(C(=O)CC[C@H]3O[C@@H](n4cnc5c(NC(=O)c6ccccc6)ncnc54)[C@H](O)[C@@H]3O)CC2)c(C)c1	1.2%	-1	-0.4	nt	-6	-3.4
CC1(C(=O)NS(=O)(=O)c2cccc(C#N)c2)CCN1C(=O)CC1CCCC1 (stereo unspecified)	0.3%	12	-0.1	-8	-11	-2.6
O=S(=O)(c1ccc2c(c1)OCCCO2)N1CCNCC1	-0.8%	3	0.8	-6	22	-1.1
CC1CCN(c2ccc(/C=N/n3nnnc3N)cc2[N+](=O)[O-])CC1	3.4%[38.3 µM]	-7	0.0	16	16	-3.2
Cc1cc(C)c(S(=O)(=O)N2CCN(C(=O)CC(C)n3nc(C)nc3C)CC2)c(C)c1 (stereo unspecified)	1.2%	1	-0.7	-17	-2	1.2
O=C(Cn1ccc(C(F)(F)F)n1)N/N=C/c1ccc(N2CCOCC2)cc1	1.0%	-2	0.1	4	1	-2.1
CCN(C(=O)CCc1nc(-c2ccc(C)cc2)no1)c1cccc(C(F)(F)F)c1	0.4%	nt	3.1	43	nt	nt
O=c1[nH]c2c(c(=O)[nH]1)CCCCCC2	-1.9%	3	-0.2	5	-4	-3.4
Cc1ccc(CCNC(=O)c2c[nH]c3ccc(S(=O)(=O)Nc4cccc(C(F)(F)F)c4)cc3c2=O)cc1	-1.6%	nt	1.0	-26	nt	nt
O=C(Nc1ccc2c(c1)OCCO2)C1CCCN1C(=O)Nc1ccc(F)cc1 (stereo unspecified)	-0.5%	5	1.7	-5	-6	0.9
Cc1noc(C)c1COC(=O)CCOc1ccccc1	3.4%	9	0.9	-3	-7	-3.0
CC(=O)c1ccc(OCc2cc(C(=O)N(C)CCOc3ccc(C)cc3)no2)cc1	-0.3%	-3	2.3	16	-8	0.8
COc1cc(/C=N/n2cnnc2)ccc1Oc1nc(Cl)ncc1F	-0.1%	-1	0.3	24	-3	0.9
O=C(NCC(c1ccco1)N1CCc2ccccc2C1)C(=O)Nc1ccccc1 (stereo unspecified)	?	0	1.2	-6	2	-1.8
CCOc1ccc(OCCOCCN2CCCC2)cc1	2.3%	2	nt	nt	13	-2.0
Cc1nnc(SC/C=C/c2ccccc2)n(N)c1=O	0.9%	1	0.6	-8	-2	1.3
N#CC1=C(S)N(c2ccccc2)C(c2cccs2)NC1=O (stereo unspecified)	-4.1%[38.3 µM]	2	-0.6	-5	-16	-1.4
O=c1cc(O)n(-c2ccccc2)c(=S)[nH]1	-0.8%	-9	-1.1	-2	-11	-3.8
COc1ccc(N2CCN(C(=O)c3cccc(Br)c3)CC2)c([N+](=O)[O-])c1	-0.8%	-30	0.5	39	-17	-0.9
O=C(Nc1cccc(Br)c1)c1cc(S(=O)(=O)N2CCOCC2)cs1	3.3%	-1	-0.4	15	-28	-9.4
O=C(Nc1ccc(Br)cc1)c1ccc(-n2cnnn2)cc1	3.3%	4	0.0	24	-1	0.9
O=C(COC(=O)C1CCN(S(=O)(=O)c2cccs2)CC1)c1ccccc1	-1.1%	9	0.3	-8	-5	-4.2
CN(Cc1ccccc1)C(=O)COC(=O)COc1ccc(C#N)cc1	0.4%	-2	-0.2	10	-3	-2.9
CC(=O)N(Cc1ccccc1)c1ccccc1C(=O)O	0.8%	4	0.8	5	-1	2.1
CC(C)C[C@H]1COc2cccc(N3CCC[C@@H]3CO)c2S(=O)(=O)N1	1.0%	10	-0.5	nt	nt	nt
CC1CCCC(C)N1CCNC(=O)Nc1ccc(Cl)cc1 (stereo unspecified)	0.7%[38.3 µM]	-1	1.3	12	-12	-0.5
CC(C)(C)c1ccc(C(=O)NCC(=O)N/N=C/c2ccccc2OCC(=O)O)cc1	-2.8%	-9	2.0	9	-4	1.9
C/C(CC(=O)Nc1ccc2c(c1)OCCO2)=N\NC(=O)c1ccccc1F	4.1%	-23	-1.4	33	-8	-3.4
COc1cccc(C(O)c2nc(-c3ccccc3C)cs2)c1 (stereo unspecified)	4.4%	7	-0.3	24	-3	-3.5
Cc1ccc(C(=O)O)cc1NC(=O)CCc1c(C)noc1C	0.0%	3	0.2	0	-7	-4.2
COC(=O)N1CCC2CC1c1c(Cl)cccc12 (stereo unspecified)	-0.3%	2	-0.6	nt	-10	-4.7
Cc1ccc(CNC(=O)c2cc3c(=O)n(C)c4ccccc4c3n2C)cc1	4.9%	3	1.7	0	-4	-2.1
Cc1ccc(NC(=O)Cn2c(=O)n(CCC(=O)NCCc3ccccc3)c(=O)c3ccccc32)cc1	3.7%	nt	-0.5	1	nt	nt
Cc1ccc(S(=O)(=O)N2CCN(c3ccc4nnc(-c5ccccc5)n4n3)CC2)cc1	0.2%	2	-0.9	46	-4	-6.3
O=C(NNC(=O)c1cccs1)c1cccc(F)c1	-0.1%	5	-0.1	-3	-6	-3.6
O=S(=O)(NCC1CCCO1)c1cc(Br)c(Br)s1 (stereo unspecified)	4.9%	-8	0.1	4	-14	-3.2
COCCN(C(=O)c1ccccc1F)c1nc(-c2ccc(OC)cc2)cs1	1.7%	0	2.2	73	0	7.9
O=C(OCCCN1CCOCC1)c1ccc(O)c(O)c1	0.7%	1	-0.1	-13	-13	-3.4
COc1ccc(OC)c(S(=O)(=O)NCCO)c1	-0.6%	3	0.6	-17	-6	-2.7
Fc1ccccc1C1c2cccn2CCN1C(=S)Nc1ccc(Br)cc1 (stereo unspecified)	19%	-17	0.8	18	-5	-2.0
Oc1c(C=Nc2ccccc2)sc(=S)n1Cc1ccccc1	12%	0	3.9	10	-7	-0.9
N#Cc1c(-c2cccnc2)cc(-c2ccccc2)nc1N	0.1%	-13	-0.7	-25	-26	1.7
Cc1nn(C(C)C(=O)NCc2ccc(OC(C)C)cc2)c(=O)c2c1sc1ccccc12 (stereo unspecified)	0.6%	nt	3.7	1	nt	nt
CCOC(=O)c1c(NC(=O)COC(=O)c2cccnc2OCC)sc(C(=O)N(CC)CC)c1C	4.2%	-5	3.6	47	0	4.6
CCN(CC)S(=O)(=O)c1ccc(NC(=O)COC(=O)c2c[nH]c(=O)[nH]c2=O)cc1	1.2%	8	-0.7	10	-13	-4.5
NC(=O)c1ccsc1NC(=O)CSc1nnc(Nc2ccccc2)s1	2.0%	-13	2.6	4	-11	0.9
N=c1c(S(=O)(=O)c2ccc(Cl)cc2)cc2c(=O)n3ccccc3nc2n1CC1CCCO1 (stereo unspecified)	?	5	0.2	-13	-10	-3.2
O=C(CN1CCN(C(=O)c2cncn2-c2ccccc2)CC1)Nc1ccccc1Cl	0.1%	1	4.6	9	-5	-5.3
CN(C)CCCN(C(=O)c1nc2ccccc2s1)c1nc2ccc(F)cc2s1	4.8%	6	0.2	-14	-13	-1.7
CCCNC(=O)NC(=O)CSc1nnc(C)n1N	1.0%	2	-0.7	27	-1	-0.3
CCn1c(C)nc2cc(C(=O)NNC(=S)NC(=O)c3ccccc3)ccc21	-1.8%	-1	0.0	-5	-15	1.1
CN1C(=O)/C(=C\c2cc(Br)cs2)c2ccccc21	3.9%	-19	0.2	-4	-4	0.4
CCOC(=O)C1(C)CCCN(C(=O)c2ccc(C#N)cc2)C1 (stereo unspecified)	0.2%	-4	-0.3	nt	-6	-3.1
CCc1nnc(NC(=O)c2ccc3ccccc3n2)s1	-0.2%	-16	0.4	-10	-8	-5.3
O=C(O)c1ccc(N2C(=O)C3C4c5ccccc5C(Br)(c5ccccc54)C3C2=O)cc1 (stereo unspecified)	-1.5%	15	0.2	-14	8	-4.6
Cc1nn(C)c(=O)c(N)c1-c1cc(-c2ccc(Cl)c(Cl)c2)n[nH]1	8.4%	10	2.1	-6	-4	-3.0
Cc1ccc(N2C(=O)CCSC23C(=O)N(Cc2ccccc2)c2ccccc23)cc1 (stereo unspecified)	0.7%	nt	2.3	-17	nt	nt
OC(Cc1cccnc1)(Cc1cccnc1)c1cc2ccccc2[nH]1	-1.4%	-6	-0.3	17	-5	-12

High-throughput results deposited in PubChem by National Center for Advancing Translational Sciences (NCATS).
